Assay outcomes as filed in PubChem.
Mtb H37Rv = M. tuberculosis H37Rv growth inhibitors, H37Rv strain (AID 1626). M. tuberculosis H37Rv growth inhibition; higher % means a stronger effect. one-dose inhibition, % at 10 µM; IC50 in µM for titrated hits. 220,000 tested, 0.95% active;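 active = confirmed in a dose series; inconclusive = inhibition above 80% but not taken into the dose series; inactive = below 80% or under 30% at every dose of the series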;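 note: bacteria incubated seven days before Alamar blue readout; 0% = bacteria only wells and 100% = bacteria with antibiotic wells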
Mtb betalactam = beta-lactam sensitization of Mtb H37Rv. inhibition, % at 25 µM. M. tuberculosis H37Rv growth with meropenem, percent inhibition; hits of this screen are not shown here. AID 434955. 330,000 tested, 0.27% active;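 active = about 74% or more and at least 40 points above the plate without the antibiotic, then above 30% in a dose series; inconclusive = first-round hits that could not be retested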;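 note: growth measured after seven days incubation then overnight dye step; 0% = bacteria only wells and 100% = bacteria with antibiotic; twin plates without the antibiotic show which effects depend on it; some results filed as inactive read as strong as hits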
Arbovirus inh = arbovirus infection inhibition; arbovirus infection cell-based antiviral screen; inhibition, % at 10 µM; 200,000 tested, 0.37% active; AID 1251;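 active = inhibition from about 30%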;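 note: bluetongue infection of BSR cells; cell survival read as ATP light after 72 h; 0% = infected wells without compound and 100% = uninfected wells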
YopH inh = blocks Yersinia enterocolitica YopH tyrosine phosphatase. inhibition, %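 (about 10 µM by stock and volumes)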. 140,000 tested, 0.16% active. fluorescence Ex485/Em525. AID 898;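 active = inhibition of 50% or more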;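 note: controls were vehicle for no effect and minimum signal wells for full effect; inactives centre near -20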
RecA splice inh = inhibitors of M. tuberculosis RecA intein splicing. P9WHJ3. cell-free RecA intein splicing, fluorescence. inhibition, %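 (about 9 µM by stock and volumes)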. 290,000 tested, 0.75% active. AID 2221; in the data active = inhibition above about 30%; inconclusive = no clear call, values can overlap the other calls;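 note: 0% = vehicle wells and 100% = reference inhibitor control wells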
Target sequence (P9WHJ3 whole entry, looked up, canonical isoform): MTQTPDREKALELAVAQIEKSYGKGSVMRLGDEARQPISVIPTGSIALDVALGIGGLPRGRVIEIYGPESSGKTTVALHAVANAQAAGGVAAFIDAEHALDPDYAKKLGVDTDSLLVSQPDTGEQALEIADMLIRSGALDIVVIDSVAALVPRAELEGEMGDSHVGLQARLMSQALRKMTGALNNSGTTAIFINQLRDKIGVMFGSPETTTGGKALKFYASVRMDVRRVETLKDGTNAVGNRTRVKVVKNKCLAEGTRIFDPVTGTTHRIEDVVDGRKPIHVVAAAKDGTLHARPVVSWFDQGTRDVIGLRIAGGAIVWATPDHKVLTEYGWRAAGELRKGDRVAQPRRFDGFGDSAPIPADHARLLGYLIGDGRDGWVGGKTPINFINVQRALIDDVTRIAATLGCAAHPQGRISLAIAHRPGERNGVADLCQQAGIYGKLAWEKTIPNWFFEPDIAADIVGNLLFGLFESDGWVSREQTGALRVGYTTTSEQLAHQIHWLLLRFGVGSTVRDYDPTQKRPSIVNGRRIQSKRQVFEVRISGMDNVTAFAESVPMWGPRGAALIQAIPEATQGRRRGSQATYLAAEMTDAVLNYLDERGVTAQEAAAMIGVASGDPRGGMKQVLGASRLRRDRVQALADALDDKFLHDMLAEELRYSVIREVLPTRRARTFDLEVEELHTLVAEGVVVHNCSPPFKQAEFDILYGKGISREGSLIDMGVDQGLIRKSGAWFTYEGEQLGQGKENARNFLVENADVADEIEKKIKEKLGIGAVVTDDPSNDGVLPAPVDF
Arbovirus inh repeat = recorded beside Arbovirus inh, whose call it bears; inhibition, %; measured here: 10K subset replicate screen; many hits read low in the repeat;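 first of two repeat runs on a subset; 0% = infected and 100% = uninfected wells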
* = called active by the depositor; ? = inconclusive; · = no result given.

SMILES	Mtb H37Rv	Mtb betalactam	Arbovirus inh	YopH inh	RecA splice inh	others
Nc1nc(SCC(=O)Nc2ccc3c(c2)CCC3)n[nH]1	5%	0	-3	-37	3.4
O=[N+]([O-])c1ccc(CSc2nc3ncc(Br)cc3[nH]2)cc1	-1%	2	·	·	0.5
COc1ccc(C2=NOC(C(=O)NCc3ccc(F)cc3)C2)cc1OC (stereo not given)	·	-5	-12	-27	2.8
C[C@H](N)c1nnc(SCc2ccc(Cl)cc2Cl)o1	2%	8	1	-34	2.5
COc1ccccc1N=Cc1c(C)[nH]n(-c2ccc(C)cc2C)c1=O	-1%	5	-5	·	1.0
COCC(=O)NNC(=S)Nc1cccc(C)c1C	9%	-1	-3	·	-2.1
O=C(O)CCCCNCc1ccccc1	3%	5	10	-21	-2.6
CC(C)C12CN3CC(C(C)C)(CN(C1)C31C(=O)Nc3ccccc31)C2=O (stereo not given)	-6%	13	-1	7	-0.5	Arbovirus inh repeat=1
O=C(CSc1nnc(Cc2ccccc2)o1)Nc1ccc(Br)cn1	-5%	7	-6	-15	2.8
CC(C)(C)c1ccc(C2C(C#N)=C(N)Oc3n[nH]c(-c4cccnc4)c32)cc1 (stereo not given)	0%	-4	·	·	5.7
O=c1c2nncn2c2cc(C(F)(F)F)ccc2n1CCNc1ncc(C(F)(F)F)cc1Cl	·	-1	·	·	3.0
CS(=O)(=O)N1CCN(C2C3CC4CC(C3)CC2C4)CC1 (stereo not given)	-5%	3	-17	·	-1.0
Cc1cc(-c2nnc(CCC(=O)NC(C)(C)C34CC5CC(CC(C5)C3)C4)o2)no1	·	-10	·	·	8.6
CCOC(=O)CC1C(=O)NCCN1S(=O)(=O)c1ccc(OC)cc1 (stereo not given)	-3%	-4	1	·	-1.3
CCOC(=O)n1c(=O)n(Cc2ccc(Cl)c(Cl)c2)c2ccccc21	1%	-2	-23	-30	15
COc1ccc(NC(=S)NC(=O)/C=C/c2ccco2)cc1	69%	8	-3	·	2.2
C#Cc1ccc([C@@H]2C=C(C(=O)N3CCOCC3)O[C@H](OCC)[C@H]2CCCO)cc1	-2%	-3	3	·	-1.2
CCc1c(C(C)S(=O)(=O)c2ccc(C)cc2)[nH]c(=O)n1-c1ccc(OC(F)(F)F)cc1 (stereo not given)	-5%	2	27	3	-0.7
CC(C)(C)c1ccc(OCCCC(=O)N2CCOCC2)cc1	-2%	2	12	·	-3.3
Cc1ccc(S(=O)(=O)N(C)C)cc1-n1c(SCC(=O)Nc2ccc(F)cc2)nc2ccccc2c1=O	4%	-4	-5	-28	5.9
COc1ccc(-c2oc3ccccc3c2C(=O)OCc2ccccc2)cc1	·	32	·	·	2.4
N=C1c2ccccc2CN1NC(=O)c1cccc(S(=O)(=O)N2CCOCC2)c1	1%	1	6	-16	1.0
CCOC(=O)C(C(C)=O)=C1SC2CS(=O)(=O)CC2S1 (stereo not given)	-3%	4	0	-36	-4.7
Cc1ccc(/C(O)=C2\C(=O)C(=O)N(C)C2c2ccc([N+](=O)[O-])cc2)cc1 (stereo not given)	·	2	·	·	0.1
CCCn1c(NC(=O)c2ccc(Cl)c(S(=O)(=O)N3CCCC3)c2)nc2ccccc21	?	91	-25	-51	11
Cc1ccc(-c2nnc(SCC(=O)Nc3ccc(S(=O)(=O)N4CCCCCC4)cc3)o2)cc1	2%	4	4	-20	-5.0
CCOc1ccc(NS(=O)(=O)c2ccc(C(=O)NCC3(N(C)C)CCCCC3)cc2)cc1	·	-6	·	·	-4.7
CC(=O)OC(C)C[N+](C)(C)C (stereo not given)	-1%	6	0	-44	1.7
Cc1ccc(N2C(=O)N(CC(=O)Nc3cc(C)cc(C)c3)C(=O)C2C)cc1 (stereo not given)	4%	5	-8	·	3.5
COc1ccc(OCCOc2ccccc2[N+](=O)[O-])cc1	17%	3	1	-31	1.5
Clc1ccc(OCC#CCN2CCOCC2)cc1	5%	3	3	·	12
N#CCCN(Cc1cccnc1)C(=S)NC(=O)C1CC1	-1%	-4	3	·	8.7
COc1ccc(N(C(=O)c2cccnc2)S(=O)(=O)c2cccs2)cc1	11%	4	3	·	8.0
Fc1cc(F)cc(-c2oncc2-c2nnnn2-c2ccccc2)c1	1%	-7	0	13	4.0
Cc1cccc(-c2noc(CN(C(=O)C(c3ccccc3)c3ccccc3)C(C)C)n2)c1	5%	3	-24	-19	6.6
CCOC(=O)Nc1cc2c(C)cc(=O)oc2cc1C	·	-8	6	-10	-0.7
O=P(c1ccccc1)(c1ccccc1)C(c1ccco1)N1CCOCC1 (stereo not given)	3%	-6	-6	-9	2.6
O=C(Cn1nnc(-c2ccc3c(c2)OCO3)n1)N1CCOCC1	-9%	4	-5	-1	-2.0
COc1ccccc1N1CCN(S(=O)(=O)c2ccccc2F)CC1	0%	3	-2	-29	1.0
CN(CCNC(=O)CN1CCN(Cc2ccccc2Cl)C1=O)Cc1ccccc1	0%	-10	-9	5	0.7

Compounds listed so far that contain two or more sulfur atoms:
SMILES	Mtb H37Rv	Mtb betalactam	Arbovirus inh	YopH inh	RecA splice inh	others
Cc1ccc(S(=O)(=O)N(C)C)cc1-n1c(SCC(=O)Nc2ccc(F)cc2)nc2ccccc2c1=O	4%	-4	-5	-28	5.9
CCOC(=O)C(C(C)=O)=C1SC2CS(=O)(=O)CC2S1 (stereo not given)	-3%	4	0	-36	-4.7
Cc1ccc(-c2nnc(SCC(=O)Nc3ccc(S(=O)(=O)N4CCCCCC4)cc3)o2)cc1	2%	4	4	-20	-5.0
COc1ccc(N(C(=O)c2cccnc2)S(=O)(=O)c2cccs2)cc1	11%	4	3	·	8.0

Next section:
SMILES	Mtb H37Rv	Mtb betalactam	Arbovirus inh	YopH inh	RecA splice inh	others
Cc1sc2ncnc(N3CCN(Cc4ccccc4)CC3)c2c1-c1ccccc1	·	88	·	·	6.5
CCOC(=O)C1=C(C)Nc2ccccc2N=C1NC(=O)CCCN1C(=O)c2ccccc2C1=O	-13%	12	-7	-6	1.4
O=C(CCc1ccccc1)Nc1ccc(F)cc1F	-3%	1	-4	5	0.2
O=C(O)C1CN(C(=O)c2cccc(Br)c2)C1	4%	-10	9	·	-0.4
CC1=C(C(=O)Nc2cc(C(=O)N(C)Cc3ccccc3)ccc2C)SCCO1	·	-3	·	·	1.6
O=C(CN(c1cccc(C(F)(F)F)c1)S(=O)(=O)c1ccc(Cl)c([N+](=O)[O-])c1)NCc1ccccc1Cl	-5%	4	-7	-28	5.1
CSc1ccc(C(=O)C2CCCN(Cc3cccn3-c3cccnc3)C2)cc1 (stereo not given)	23%	-10	11	·	0.3
N#CC1(NC(=O)CSc2nnc(COc3ccccc3F)n2N)CCCCC1	·	-3	·	·	0.1
Cn1nc(C(=O)Nc2nc3ccc(S(C)(=O)=O)cc3s2)ccc1=O	·	-2	3	-5	1.6
CC(C)c1ccccc1NC(=O)Nc1ccc(F)cc1F	-2%	3	·	·	-1.4
CCOC(=O)C1=C(C)NC(C)=C(C(=O)OCC)C1C1=COCCO1	-1%	-5	0	-23	3.7
O=c1cc2n(c(=O)[nH]1)CCC1=C2CCCC1	-4%	-3	-3	-22	-2.3
CCOc1ccc(N(CC(=O)NCc2ccc(OC)cc2)S(=O)(=O)c2c(C)[nH]c(=O)[nH]c2=O)cc1	·	-1	·	·	-2.6
CC(C)n1cc(C(=O)N2CCCC(Nc3ccc(F)c(F)c3)C2)cn1 (stereo not given)	·	0	·	·	-1.3
O=C(O)c1ccc(N/N=C/c2ccnc3ccccc23)cc1	7%	0	·	·	3.0
Cc1ccc(/C=N/NC(=O)CCSc2ccccc2)cc1	58%	38	-18	-27	0.6
Cc1ccc(Cn2c(Sc3nnc(C)s3)nc3c2c(=O)[nH]c(=O)n3C)cc1	6%	7	8	-6	2.3	Arbovirus inh repeat=15
Cc1c(NC(=O)c2ccc(Cl)nc2)cccc1-c1nc2cccnc2s1	-3%	94	·	·	3.3
Nc1nonc1-n1nnc(C(=O)N/N=C/c2ccccc2F)c1-c1cccs1	·	1	·	·	-1.0
CC(C)(C)C(=O)Nc1nc(-c2ccc3c(c2)OCO3)cs1	·	6	13	-15	2.8
C[N+](C)(C)CC#CCOC(=O)Nc1cccc(Cl)c1	-8%	0	·	·	2.3
O=C(/C=C/c1ccco1)Nc1ccc(CN2CCOCC2)cc1	-1%	4	·	·	-0.8
O=S(=O)(c1ccc(-c2ccon2)s1)N1CCN(CCN2CCOCC2)CC1	5%	-11	·	·	3.2
O=c1c2ccccc2nc(COc2ccccc2)n1/N=C/c1cc([N+](=O)[O-])ccc1O	?	?	-24	-7	-2.4
CC1(C)Cc2c(sc3nnn(Cc4ccc(Cl)cc4)c(=O)c23)CO1	-1%	1	26	-32	·
Cc1cc(NC(=O)/C=C/c2ccccc2)no1	-1%	5	-2	6	-0.5
N#Cc1c(N)n(CCOC(=O)c2ccc(Cl)cc2)c2nc3ccccc3nc12	12%	·	8	4	52*
CC(C)(C)N(Cc1ccccc1)C(=O)CSc1ncn[nH]1	·	-6	·	·	-1.6
Cc1cccc(C)c1NC(=S)NCc1ccncc1	2%	8	·	·	0.3
Cc1ccc(N2C(=O)c3ccccc3C2Nc2ccccc2F)nc1 (stereo not given)	8%	12	-5	-4	-0.4	Arbovirus inh repeat=-2
O=C(NCCCN1CCOCC1)c1ccc2c(c1)N(Cc1ccc(F)cc1)CCS2	·	-16	·	·	-3.8
Cc1ccc(-n2[nH]c(=O)c3cccnc32)cc1	1%	-13	7	0	1.2
COC(=O)c1cn(CC(=O)N2CCCCCC2)c2ccccc12	-3%	-3	1	-22	-0.7
Cc1noc(C)c1COC(=O)CCOc1ccccc1	-4%	8	0	-15	1.0
COc1ccc(OCC(=O)NCCCn2ccnc2)cc1	-5%	-14	·	·	-0.5
Cc1nnc(SCC(=O)Nc2nc3c(s2)CC(C)CC3)s1 (stereo not given)	-18%	2	7	-9	2.1
CCOc1ccc(OCC)c(NS(=O)(=O)c2cn(C)cn2)c1	·	-6	·	·	-3.0
O=S(=O)(Nc1cc(Sc2cccc3cccnc23)c(O)c2ccccc12)c1ccccc1	?	·	-45	6	8.5
COc1ccc(-n2c(SCC(=O)Nc3sc4c(c3C#N)CCCC4)nnc2-c2ccc(O)cc2)cc1	-8%	8	-42	-7	1.7
CN(C)S(=O)(=O)c1cccc(COC(=O)c2cc([N+](=O)[O-])ccc2N2CCOCC2)c1	·	-16	·	·	2.2
O=C(CSc1nnc(NC(=O)C2CC(=O)N(c3ccc(F)cc3)C2)s1)NCc1ccco1 (stereo not given)	·	?	·	·	6.0
CCOc1ccc(NS(=O)(=O)c2ccc(OC)c(C)c2)cc1	1%	-3	6	-19	2.1
c1ccc(-c2nc(-c3ccco3)cs2)nc1	-9%	-6	2	-32	1.4
O=c1[nH]ncc2c3ccccc3n(Cc3ccccc3F)c12	-8%	0	9	-40	0.6
COc1ccc(C2CC(=O)c3ccccc3O2)cc1 (stereo not given)	1%	28	-3	-33	-2.4
O=C1NC(=S)N(c2ccc(F)cc2)C(=O)/C1=C/c1ccccc1O	·	88	·	·	0.1
Cc1cc(C)cc(OCC(=O)Nc2ccc(N3CCN(S(C)(=O)=O)CC3)cc2)c1	-1%	-5	-6	-44	0.6
Cc1ccc(CNC(=O)c2cc(COc3c(F)cccc3F)on2)s1	7%	6	-4	·	3.9
Cc1ccc(S(=O)(=O)N2CCC(C(=O)N[C@@H](C)C(=O)NCCc3ccccc3)CC2)cc1	·	-4	4	·	·
COC(=O)[C@@H]1CCCN1C(=O)CCc1nnc(CCc2c[nH]c3ccccc23)o1	14%	-1	3	·	0.7
CC(C)Cc1nc(Nc2ccc(S(=O)(=O)N3CCCC3)cc2)c2nnn(Cc3ccccc3)c2n1	17%	3	2	-3	3.1
O=C(O)c1ccc2c(c1)C1C=CCC1C(c1cc3c(cc1Br)OCO3)N2 (stereo not given)	-1%	7	-14	·	6.4
CN(CCCNC(=O)CCCOc1cc(=O)n(C)c2ccccc12)Cc1ccccc1	11%	-7	-17	·	-0.9
COc1ccc(C(=O)N2CCN(c3ccc(NC(=O)Cc4ccccc4)cc3)CC2)cc1	·	61	·	·	-11
Cc1ccc(CNc2ccccc2C(=O)O)s1	·	-6	·	·	0.3

Structural class, the compounds so far with a COOH group.
SMILES	Mtb H37Rv	Mtb betalactam	Arbovirus inh	YopH inh	RecA splice inh	others
O=C(O)CCCCNCc1ccccc1	3%	5	10	-21	-2.6
O=C(O)C1CN(C(=O)c2cccc(Br)c2)C1	4%	-10	9	·	-0.4
O=C(O)c1ccc(N/N=C/c2ccnc3ccccc23)cc1	7%	0	·	·	3.0
O=C(O)c1ccc2c(c1)C1C=CCC1C(c1cc3c(cc1Br)OCO3)N2 (stereo not given)	-1%	7	-14	·	6.4
Cc1ccc(CNc2ccccc2C(=O)O)s1	·	-6	·	·	0.3

Only part of the results is shown, so the mix of outcomes need not match the whole.
